Screens deposited in PubChem by several laboratories.
PKD1 inh: blocks activity of human protein kinase D1; PKD1 kinase fluorescence polarization assay; inhibition, %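 (about 10 µM by stock and volumes)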; 200,000 compounds, 0.056% hits;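 active means inhibition of 50% or more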;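 further: controls were vehicle for no effect and a reference inhibitor for full effect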
Target sequence (Q15139 whole entry, looked up): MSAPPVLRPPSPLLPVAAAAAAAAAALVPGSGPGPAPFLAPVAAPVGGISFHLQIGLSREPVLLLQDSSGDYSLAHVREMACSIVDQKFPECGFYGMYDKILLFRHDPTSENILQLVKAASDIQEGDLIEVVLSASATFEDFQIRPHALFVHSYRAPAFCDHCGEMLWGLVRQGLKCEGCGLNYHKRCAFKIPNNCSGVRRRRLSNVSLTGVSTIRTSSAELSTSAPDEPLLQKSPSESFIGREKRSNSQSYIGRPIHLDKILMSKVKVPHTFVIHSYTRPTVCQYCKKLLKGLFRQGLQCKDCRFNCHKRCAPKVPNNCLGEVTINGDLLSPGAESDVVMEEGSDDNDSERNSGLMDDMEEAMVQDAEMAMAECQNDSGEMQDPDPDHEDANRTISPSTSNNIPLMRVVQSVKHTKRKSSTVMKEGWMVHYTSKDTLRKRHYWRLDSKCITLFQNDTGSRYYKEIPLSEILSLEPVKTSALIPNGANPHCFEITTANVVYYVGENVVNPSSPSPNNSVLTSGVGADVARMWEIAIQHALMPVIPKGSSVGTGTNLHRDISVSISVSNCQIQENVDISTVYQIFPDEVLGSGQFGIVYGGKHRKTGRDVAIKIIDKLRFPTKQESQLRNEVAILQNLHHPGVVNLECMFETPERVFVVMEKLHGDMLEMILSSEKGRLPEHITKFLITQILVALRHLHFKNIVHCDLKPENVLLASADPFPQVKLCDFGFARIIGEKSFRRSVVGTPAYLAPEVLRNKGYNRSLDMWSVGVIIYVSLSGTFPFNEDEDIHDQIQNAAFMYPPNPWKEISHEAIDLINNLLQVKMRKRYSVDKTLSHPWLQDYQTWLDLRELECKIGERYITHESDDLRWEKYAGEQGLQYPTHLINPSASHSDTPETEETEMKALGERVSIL
HSV augment: increases HSV replication in cells. HSV replication augmentation in cells, fold increase. 220,000 compounds, 0.005% hits. maximum fold increase. AID 1956;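 active means peak rise of 1.5-fold or more in the series; tested in PC3 cells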;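 further: first round at 10 µM; read as green reporter fluorescence; hits show the peak of a series up to 25 µM; 1 = signal of infected wells without compound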
RGS16-Gao HTS: modulates binding between human RGS16 and Galphao; bead-based flow cytometry RGS16-Galphao binding, fluorescence; actives lie on both sides; binding response (% of control), % at 10 µM; 220,000 compounds, 0.38% hits; AID 1441;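 active means below 25% or above 175%, edge rows of some plates excepted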;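 further: Galphao activated by GDP with aluminum fluoride before binding; 100% = wells without compound and 0% = beads without RGS; some results beyond the cut were filed as inactive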
GALR2 ag: agonists of human galanin receptor 2 (GALR2). 140,000 compounds, 0.48% hits. GALR2-expressing cells, agonist activation read-out. AID 803. O43603. activation, %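 (tested at 5 µM)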;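 active means above mean plus 3 SD of all compounds, about 5% in these data, not always enough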;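 further: 0% = vehicle buffer wells and 100% = reference agonist at full effect; tested in CHO reporter cells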
INS promoter inh: TRM-6 insulin promoter activity inhibition; inhibition, % at 2 µM; TRM-6 cells (human fetal islet line), insulin promoter-eGFP reporter, imaging; reporter expression induced with tamoxifen; 130,000 compounds, 0.9% hits;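 active means inhibition above the mean plus 3 SD, with well images judged a real hit on visual review, cut at about 60% in these data, passing the limit was not always enough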
INS promoter inh cell count: also measured in INS promoter inh; calls as there; normalized cell count, %; measured here: cell count, toxicity; reference of the scale not given here;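 cells exposed to compound for 48 h; stained nuclei by imaging scaled within each plate; lower means fewer cells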
HSV augment primary fold: second read-out of HSV augment, no call of its own (marks repeat the call); fold increase; compound at 10 µM; measured here: primary screen fold increase 10 uM; tested in PC3 cells;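 GFP signal in the first replicate; 1 = infected wells without compound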
An asterisk follows results filed as active; i = inactive; · = not tested or not shown.

SMILES	PKD1 inh	HSV augment	HSV augment primary fold	RGS16-Gao HTS	GALR2 ag	INS promoter inh	INS promoter inh cell count
O=C(O)CCNC(=O)CCCn1nnc2ccccc2c1=O	·	i	1.22	102.9	·	·	·
O=C(NC1(C(F)(F)F)NC(=O)N(Cc2cccnc2)C1=O)c1ccccc1 (stereo not given)	-8.8	i	1.01	38.9	-1.9	28.6	76.1
CCCCCCN1N=C(C)C(C(=O)c2ccc(Cl)cc2)C1=O (stereo not given)	4.8	i	1.05	102.7	-3.0	·	·
O=P1(c2ccccc2)C=Cn2c1cc1c2CCCC1 (stereo not given)	-0.7	i	0.89	99.8	-2.7	-55.6	154.0
O=C1N/C(=N/O)S/C1=C/c1cccc([N+](=O)[O-])c1	-0.2	i	0.97	99.8	·	-8.1	91.5
O=C(Cc1ccccc1)N/N=C/c1ccc(Cl)cc1Cl	5.8	i	0.84	99.1	0.4	30.0	61.4
COc1cc(C2CC(=O)Oc3c2c(=O)n(C)c2ccccc32)ccc1O (stereo not given)	0.8	i	0.9	105.4	·	45.0	152.0
Cc1c(NC(=O)C(C)Sc2ncnc3ccccc23)c(=O)n(-c2ccccc2)n1C (stereo not given)	-4.1	i	1	103.1	·	·	·
COc1ccc(Nc2cccc(Cl)c2)c(C(=O)O)c1	-3.3	i	0.96	110.0	-0.6	3.5	107.3
O=C(Nn1c(C2CCC2)nc2ccccc2c1=O)C1CCC1	-15.8	i	1.08	94.3	-1.4	·	·
Fc1ccc(-n2c(-c3cc(C4CC4)[nH]n3)n[nH]c2=S)cc1Cl	·	i	0.89	87.2	·	·	·
O=C(c1noc2c1CCCC2)N1CCN(c2ccc(F)cc2)CC1	-9.1	i	1.04	100.6	-3.5	·	·
Cc1cc(C)nc(NS(=O)(=O)c2ccc(NC(=O)C3(c4ccccc4)CCCC3)cc2)n1	6.1	i	0.84	101.7	1.1	·	·
Cc1c(N=C(N)/N=C(\N)Nc2ccc(Br)cc2)c(=O)n(-c2ccccc2)n1C	-2.2	i	0.88	57.2	-0.7	·	·
O=C1CCN(C(=O)c2ccc(Cl)cc2)N1	-5.0	i	1.03	107.2	·	9.1	93.9
C=CCNC(=O)c1ccc(OC)cc1OC	-10.6	i	0.99	98.9	-1.4	-5.3	94.3
Cc1[nH]nc(Sc2ccccn2)c1[N+](=O)[O-]	6.9	i	0.79	101.2	-1.3	-7.7	99.8
Cc1cc(NC(=O)CSc2nc3cc(Cl)ccc3s2)no1	-7.7	i	1.04	115.2	-1.5	-5.5	94.8
COc1ccccc1N1CCN(CCN2C(=O)CC(=C3c4ccccc4-c4ccccc43)C2=O)CC1	-2.6	i	0.95	·	-0.2	16.3	111.3
C/C(=N\OC(=O)c1ccc(C)cc1)c1c(C)nc2cc(C)ccn12	4.4	i	0.96	107.0	·	50.0	117.4

5 entries from above, with bars between the fields:
canonical_smiles | PKD1 inh | HSV augment | HSV augment primary fold | RGS16-Gao HTS | GALR2 ag | INS promoter inh | INS promoter inh cell count
Cc1cc(C)nc(NS(=O)(=O)c2ccc(NC(=O)C3(c4ccccc4)CCCC3)cc2)n1 | 6.1 | i | 0.84 | 101.7 | 1.1 | · | ·
C=CCNC(=O)c1ccc(OC)cc1OC | -10.6 | i | 0.99 | 98.9 | -1.4 | -5.3 | 94.3
COc1cc(C2CC(=O)Oc3c2c(=O)n(C)c2ccccc32)ccc1O (stereo not given) | 0.8 | i | 0.9 | 105.4 | · | 45.0 | 152.0
O=P1(c2ccccc2)C=Cn2c1cc1c2CCCC1 (stereo not given) | -0.7 | i | 0.89 | 99.8 | -2.7 | -55.6 | 154.0
O=C(Nn1c(C2CCC2)nc2ccccc2c1=O)C1CCC1 | -15.8 | i | 1.08 | 94.3 | -1.4 | · | ·

Following part:
SMILES	PKD1 inh	HSV augment	HSV augment primary fold	RGS16-Gao HTS	GALR2 ag	INS promoter inh	INS promoter inh cell count
C/C(=N\Nc1cc(C)nc(NCc2ccccc2)n1)c1cccc([N+](=O)[O-])c1	·	i	1.04	100.8	·	·	·
CN(C)C(CNC(=O)c1cc(S(=O)(=O)N(C)c2ccccc2)ccc1Cl)c1ccccc1 (stereo not given)	·	i	0.95	101.0	·	·	·
Cc1ccccc1NC(=O)COC(=O)Cc1ccsc1	5.9	i	1.24	110.8	·	9.5	86.6
C/C=C/C(=O)OCC(=O)Nc1c(Cl)cccc1Cl	-1.8	i	0.78	93.5	-0.4	·	·
CCOc1ccc(C2NC(=O)c3ccccc3O2)cc1 (stereo not given)	-4.3	i	0.97	103.5	-0.4	·	·
COc1ccc(CC2(CO)CCN(Cc3nc(C(C)C)cs3)CC2)cc1	-3.3	i	1	113.6	·	·	·
Cc1ccccc1CS(=O)(=O)c1cn(CC(=O)N2CCC(C)CC2)c2ccccc12	-10.7	i	0.96	100.8	-0.7	·	·
CC1CCCCN1C(=O)Nc1cccc(Cl)c1 (stereo not given)	-5.6	i	0.92	99.2	-3.9	14.3	75.9
CC(=O)NC1=NN(C(C)=O)C(C)(CS(=O)(=O)c2ccc(Cl)cc2)S1 (stereo not given)	-0.8	i	1.02	80.4	-1.6	56.8	116.6
CC(C)(C)c1ccccc1NC(=O)Cn1cnc2cc([N+](=O)[O-])ccc2c1=O	-1.0	i	0.89	97.3	·	·	·
COc1ccc2sc(N(CCCN(C)C)C(=O)c3nc4ccccc4s3)nc2c1	0.6	i	0.98	95.9	·	-22.2	111.4
CCNC(=O)CSc1nc2ccccc2c(=O)n1CCCOC(C)C	-3.6	i	0.83	108.0	-1.4	3.1	90.5
O=C(CCc1ccccc1)Nc1ccccc1C(=O)NCc1ccco1	-3.6	i	1.01	45.6	-1.1	62.5	128.8
COc1ccc(C2=C(N)c3ccccc3C2=O)cc1	5.1	i	0.76	100.6	-4.5	71.4*	46.2*
COc1ccc(C(=O)NCC(=O)N2CCCC(C)C2)cc1OC (stereo not given)	3.8	i	0.94	99.0	·	·	·
C=C(C)c1cccc(C(C)(C)NC(=O)N2CCN(c3ccccn3)CC2)c1	-8.0	i	1.13	100.8	-2.2	·	·
CCOc1ccc(N2CC(O)=C(c3ccccc3)C2=N)cc1	1.9	i	0.91	106.1	·	·	·
COc1ccc(CCNC(=S)NCc2cccs2)cc1OC	-3.3	i	0.95	97.9	·	·	·
C/C(=N/Nc1ccc([N+](=O)[O-])cc1)c1ccc(C)cc1C	-1.8	i	1.09	107.1	·	-76.5	96.1
CCc1nnc(NS(=O)(=O)c2ccc(NC(=S)NC(=O)c3cccnc3)cc2)s1	2.8	i	0.97	103.7	·	·	·
Cc1cc(F)ccc1S(=O)(=O)Nc1ccccc1C(=O)Nc1ccc2[nH]c(=O)[nH]c2c1	-6.5	·	·	98.7	-0.6	·	·
CC1=C(C(=O)OCc2ccc3c(c2)OCO3)C(c2cccc([N+](=O)[O-])c2)NC(=O)N1 (stereo not given)	-2.5	i	0.92	228.5	·	-90.9	66.3
O=c1cc2c(n[nH]1)CCCC2	3.8	i	0.88	114.8	-2.6	6.1	151.1
Cc1cccc2sc(NC(=O)CN3C(=O)C4CC=CCC4C3=O)nc12 (stereo not given)	0.3	i	0.92	93.5	·	·	·
Cc1ccc(S(=O)(=O)N2CCN(C(=O)Cc3ccc4c(c3)OCCO4)CC2)cc1C	-4.1	i	1.04	104.4	-0.4	-65.1	100.0
C/C(=N/NC(=O)CN1CCN(S(=O)(=O)c2ccc(C)cc2)CC1)c1ccco1	·	i	0.92	85.7	·	·	·
CCCOC(=O)CSc1nc(N)c(C#N)c(-c2ccco2)c1C#N	-1.0	i	1.01	100.2	-1.4	-70.0	90.2
COc1ccc(NC(=O)CSc2nnc(-c3ccco3)n2C)cc1	8.6	i	0.963	104.5	-1.6	·	·
CCCC(=O)Nn1cnc2c(c1=O)C1(CCCC1)Cc1ccccc1-2	-0.5	i	1	103.7	-1.0	43.8	125.4
OC1(c2ccccc2)Cc2cccc[n+]2C1c1ccccc1 (stereo not given)	·	i	1.21	94.1	·	·	·
O=C(Nc1cccc(S(=O)(=O)c2cccc(NC(=O)c3ccco3)c2)c1)c1ccco1	·	i	0.81	97.9	·	·	·
COC(=O)C1CCN(CC(N)=O)CC1	4.7	i	0.99	100.4	-1.4	64.3	97.9
CCc1ccc(-n2c(O)c(C=NCCN(CC)CC)c(=O)[nH]c2=O)cc1	-12.9	i	0.81	103.6	-3.3	-23.3	70.1
CCCCOc1ccc(N(CC(=O)NCC2CCCO2)C(=O)CCC(=O)Nc2cc(C)ccn2)cc1 (stereo not given)	-1.2	i	1.06	119.8	-1.4	29.7	111.5
O=C(CSCc1ccc(Br)cc1)N=Nc1c(O)[nH]c2ccccc12	4.6	i	0.99	101.7	0.3	27.3	165.2
CC(C)CCNC(=O)C1CCN(c2nnc(-n3cccc3)s2)CC1	-5.4	i	1	104.8	-1.7	·	·
CSc1nnc(-c2cnccn2)n1Cc1ccccc1	-0.1	i	0.89	98.5	-1.5	40.0	73.0
COc1ccc2c(c1)C1(Nc3ccccc3-c3nc4ccccc4n31)C(=O)N2C (stereo not given)	-0.1	i	0.75	99.7	0.2	-48.6	84.2
O=C(Nc1ccccc1Cl)c1ccc(Cl)cc1Cl	-7.0	i	1.06	100.0	·	·	·
COC(=O)[C@@H]1C[C@@]2(O)[C@H](O)[C@H](O)[C@H](O)C[C@H]2N1Cc1ccc(C(C)(C)C)cc1	·	i	0.83	102.5	·	·	·

Three compounds already listed, ordered by heavy-atom count, low to high.
SMILES	PKD1 inh	HSV augment	HSV augment primary fold	RGS16-Gao HTS	GALR2 ag	INS promoter inh	INS promoter inh cell count
CSc1nnc(-c2cnccn2)n1Cc1ccccc1	-0.1	i	0.89	98.5	-1.5	40.0	73.0
CCc1ccc(-n2c(O)c(C=NCCN(CC)CC)c(=O)[nH]c2=O)cc1	-12.9	i	0.81	103.6	-3.3	-23.3	70.1
COC(=O)[C@@H]1C[C@@]2(O)[C@H](O)[C@H](O)[C@H](O)C[C@H]2N1Cc1ccc(C(C)(C)C)cc1	·	i	0.83	102.5	·	·	·

Next part.
SMILES	PKD1 inh	HSV augment	HSV augment primary fold	RGS16-Gao HTS	GALR2 ag	INS promoter inh	INS promoter inh cell count
NC1=NC(=O)/C(=C\c2ccsc2)S1	-2.6	i	0.87	99.6	·	·	·
C=CCn1c(SCC(=O)Nc2sc(C)c(C)c2C(=O)OCC)nnc1-c1sc(N)nc1C	3.9	i	0.86	100.3	2.4	-25.6	142.2
O=C1C2(c3ccccc3)CN(CCO)CC1(c1ccccc1)CN(CCO)C2	-1.2	i	0.96	94.8	-1.1	-5.1	71.7
CCOC(=O)N1CCN(C(=O)c2ccc3c(c2)N(CC)CCS3)CC1	-4.1	i	0.93	85.5	-1.4	·	·
COc1ccccc1Nc1ccc(N)cc1	-9.7	i	0.83	82.5	·	-36.4	80.0
CCOC(=O)N1CCN(C(=O)c2cc3c(s2)-c2ccc(Cl)cc2S(=O)(=O)C3)CC1	1.6	i	0.87	96.9	·	·	·
O=C1C=CC(=O)C(C2=C3C(=O)N(CCc4ccccc4)CC(=O)N3CCC2)=C1	1.9	i	1.03	87.3	0.2	-278.6	21.3
CC1CCCC(C)N1C(=O)CSc1nnc(C2CCCCC2)o1 (stereo not given)	0.1	i	0.82	92.1	-0.3	-25.0	133.9
CSc1ccccc1NC(=O)CN(C)CC(=O)Nc1ccc(Cl)cc1[N+](=O)[O-]	3.2	i	0.94	102.3	·	-100.0	76.3
O=C(Cc1ccc(Cl)cc1)NNC(=S)NC(=O)c1cccnc1	8.3	i	1.02	95.1	·	-10.5	128.1
CN1C2C=C3C(C#N)=C(N)C(C#N)(C#N)[C@H](c4c(F)cccc4F)[C@H]3C1CC2 (stereo not given in full)	9.7	i	0.95	97.9	-0.6	-20.5	117.1
CCN(CC)c1ccc(NC(=O)c2cccc(C)c2)cc1S(=O)(=O)Nc1ccccc1OC	1.6	i	0.82	66.8	0.2	38.9	151.9
CC1=C/C(=C\c2ccc3c(c2)OCO3)C(=O)S1	-1.6	·	·	95.8	-1.1	-35.5	96.6
O=C1CSC(c2ccccc2F)N1c1cc(Cl)ccc1O (stereo not given)	3.2	i	0.78	99.3	-1.3	54.5	166.1
COc1ccc(CCN(Cc2ccccn2)C(=S)Nc2cccc(C)c2)cc1OC	2.2	i	1.01	97.9	·	·	·
CCn1ncc(Br)c1C(=O)NC(C)c1ccccc1 (stereo not given)	-1.7	i	1.07	99.3	-1.9	23.8	143.4
CC(Nc1ccc(Br)cc1)C(=O)N/N=C/c1ccccc1OCc1ccccc1 (stereo not given)	-2.5	i	0.83	105.5	-2.3	10.8	154.2
CC(=O)Nc1ccc(S(=O)(=O)NCCSCc2ccc(Cl)cc2Cl)cc1	1.4	i	0.95	86.5	-2.2	-11.5	114.7
Cc1ccc2nc(SCC(=O)c3ccc(Cl)s3)[nH]c2c1	6.0	i	0.98	100.7	-2.6	-42.9	94.2
COc1ccc(CN2C(=O)CC(Cc3cc(C)cc(C)c3)C2=O)cc1OC (stereo not given)	-14.9	i	1	25.5	-0.7	31.4	74.9
Cc1ccccc1SCC(=O)OCC(=O)Nc1sccc1C(N)=O	2.8	i	1.25	95.5	-0.9	-95.9	122.0
